Compound activity as filed in PubChem BioAssay.
DT40 TDP1 CPT = qHTS for Inhibitors of human tyrosyl-DNA phosphodiesterase 1 (TDP1): qHTS in cells in presence of CPT | AID 686979, 2013 | 420,000 tested, 12% active | chicken DT40 Tdp1-/-;hTDP1 cells + 20 nM CPT, ATP luminescence, 48 h | Potency, µM (highest dose often 46.2 µM), for the others: at the highest dose activity change, negative = growth inhibition, actives largely listed as inhibitors; also: nearly all actives have a fitted effect of over 55% in size
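Cell growth measured by CellTiter-Glo luminescence after a minimum 48 h, 37 C compound exposure with 20 nM CPT in Tdp1-knockout DT40 cells stably expressing hTDP1, seeded 400/well; qHTS titration format.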
KAT2A inh = qHTS Assay for Inhibitors of GCN5L2 | Histone acetyltransferase KAT2A (Homo sapiens), Q92830 | GCN5L2 HAT assay, ThioGlo1 CoA-SH fluorescence | Potency, µM (top dose mostly 58.9 µM), inactives show at the top dose activity change, negative = inhibition, actives largely listed as inhibitors | 390,000 tested, 0.21% active | AID 504327, 2011
Target sequence (Q92830 whole entry, looked up): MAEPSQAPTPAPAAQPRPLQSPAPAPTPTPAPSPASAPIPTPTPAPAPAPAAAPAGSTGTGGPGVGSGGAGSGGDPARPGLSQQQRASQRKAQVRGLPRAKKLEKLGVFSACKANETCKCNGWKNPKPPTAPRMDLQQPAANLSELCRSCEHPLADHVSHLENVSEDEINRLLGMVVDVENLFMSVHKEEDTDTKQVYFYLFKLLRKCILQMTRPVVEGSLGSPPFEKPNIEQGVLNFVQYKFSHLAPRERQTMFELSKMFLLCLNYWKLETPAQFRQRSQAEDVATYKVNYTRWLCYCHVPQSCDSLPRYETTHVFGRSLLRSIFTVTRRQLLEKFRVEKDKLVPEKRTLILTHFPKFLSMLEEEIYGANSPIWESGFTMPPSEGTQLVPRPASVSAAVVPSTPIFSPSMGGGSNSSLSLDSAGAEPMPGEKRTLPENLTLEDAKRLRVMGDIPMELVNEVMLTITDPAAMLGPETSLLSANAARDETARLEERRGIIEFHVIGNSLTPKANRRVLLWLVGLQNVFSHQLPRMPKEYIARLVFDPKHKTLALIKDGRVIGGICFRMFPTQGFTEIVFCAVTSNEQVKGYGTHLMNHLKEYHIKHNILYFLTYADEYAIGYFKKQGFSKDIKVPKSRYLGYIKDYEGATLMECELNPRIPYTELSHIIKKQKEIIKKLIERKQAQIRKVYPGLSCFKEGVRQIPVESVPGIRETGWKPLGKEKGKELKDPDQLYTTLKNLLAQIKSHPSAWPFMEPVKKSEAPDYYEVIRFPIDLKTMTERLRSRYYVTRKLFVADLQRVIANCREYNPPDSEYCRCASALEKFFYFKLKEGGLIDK
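Free CoA generated was detected with ThioGlo1 (50uM) fluorescence at Ex340nm/Em540nm, read immediately and after 20 min at room temperature. Enzyme, 20 nM in HEPES pH 7.5 buffer, saw compounds 15 min before adding 75uM H3(1-25) peptide and 70uM acetyl-CoA.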
The depositor's hits bear a star; ? = inconclusive; . = not tested or not shown; & = joins results of further samples; [ ] = dose if it differs, or a comment. Calls follow the shape of the dose curve; as a rule, active = well fitted curve in the direction sought with a large enough effect; inconclusive = small, poorly fitted or top-dose-only effect, or another doubt; inactive = no such curve, though single readings can be large; an effect the other way counts as inactive or inconclusive. % is scaled to controls: 0 for no effect and ±100 for the full control effect; potency is read from the fitted curve at half-maximal effect. Not all compounds are listed; most or all hits stand in other tables.

No. | SMILES | DT40 TDP1 CPT | KAT2A inh
1 | Nc1c2c(nc3sc4c(c13)CCCC4)CCCCCC2 | ? | 3%
2 | CCOc1ccccc1NC(=O)CSc1cn[nH]n1 | -1% | -7%
3 | COc1ccc(/C=C/C(=O)c2cc(Br)ccc(=O)c2O)cc1 | 15µM* | -19%
4 | COc1ccccc1NC(=S)N1CCc2cc(OC)c(OC)cc2C1 | -7% | -3%
5 | COc1ccc(C)cc1S(=O)(=O)Nc1cccc(-c2ccc(N3CCC(C)CC3)nn2)c1 | ? | ?
6 | O=C(Cc1ccccc1)Nc1ccccc1C(=O)N1CCCCC1 | -8% | ?
7 | O=C(COC(=O)C1(c2ccc(F)cc2)CCCC1)N1CCNC1=O | -1% | -2%
8 | CCOC(=O)c1ccc(NC(=O)CN(Cc2ccc(Cl)cc2)S(C)(=O)=O)cc1 | ? | -13%
9 | O=C(CC1(O)C(=O)Nc2cc(Cl)cc(Cl)c21)c1ccncc1 (stereo unspecified) | ? | -1%
10 | N#CC1=C(N)N(c2ncn[nH]2)C2=C(C(=O)CCC2)C1c1ccc(F)cc1 (stereo unspecified) | 19% | -1%
11 | CCOC(=O)c1cccnc1NC(=O)c1ccncc1 | -3% | 1%
12 | COc1ccc(Nc2nc(N)c([N+](=O)[O-])c(NCCO)n2)cc1 | -2% | 0%
13 | CCOc1cc(-c2cc(-c3ccc(NC(C)=O)cc3)nc(N)c2C#N)ccc1O | 18µM* | 0%
14 | Cc1ccc(CNC(=O)C(=O)Nc2c3c(nn2-c2ccccc2)CSC3)cc1 | ? | 2%
15 | COC(=O)c1c(NC(=O)CN2CCN(C(=O)c3ccco3)CC2)c2cc(C)ccc2n1C | -26% | 1%
16 | COc1cc2c(cc1NC(=O)CC1SC(N3CCCC3)=NC1=O)oc1ccccc12 (stereo unspecified) | ? | -2%
17 | Cn1c(SCc2ccccc2F)nnc1-c1cnccn1 | -29% | -1%
18 | COc1ccccc1-c1c(C)nn2c(N3CCOCC3)cc(C)nc12 | -1% | -12%
19 | O=C(CCNS(=O)(=O)c1ccc(Cl)cc1)NCc1cccnc1 | -12% | 2%
20 | Cc1noc(C)c1S(=O)(=O)Nc1ccc2c(c1)C(=O)N([C@H](C)CO)C[C@H](C)[C@@H](CN(C)Cc1ccc(C(=O)O)cc1)O2 | -7% | -2%
21 | CCCCOc1ncnc2c1[nH]c1ccc(OCC)cc12 | -18% | -5%
22 | COc1cccc(CNC(=O)c2ccc(Cl)c(S(=O)(=O)N3CCOCC3)c2)c1 | -12% | -24%
23 | Cc1nc2ccccc2n1/N=C/c1cccnc1 | -22% | -11%
24 | Cc1ccc(NC(=O)C2CCCN(c3ncccn3)C2)cc1C (stereo unspecified) | -10% | -6%
25 | CSc1nnc(Nc2ccccc2C)s1 | -2% | 0%

Part of the list above, with one line to a screen.
#1 Nc1c2c(nc3sc4c(c13)CCCC4)CCCCCC2
#2 CCOc1ccccc1NC(=O)CSc1cn[nH]n1
#3 COc1ccc(/C=C/C(=O)c2cc(Br)ccc(=O)c2O)cc1
#4 COc1ccccc1NC(=S)N1CCc2cc(OC)c(OC)cc2C1
#5 COc1ccc(C)cc1S(=O)(=O)Nc1cccc(-c2ccc(N3CCC(C)CC3)nn2)c1
#6 O=C(Cc1ccccc1)Nc1ccccc1C(=O)N1CCCCC1
#7 O=C(COC(=O)C1(c2ccc(F)cc2)CCCC1)N1CCNC1=O
#8 CCOC(=O)c1ccc(NC(=O)CN(Cc2ccc(Cl)cc2)S(C)(=O)=O)cc1
#9 O=C(CC1(O)C(=O)Nc2cc(Cl)cc(Cl)c21)c1ccncc1 (stereo unspecified)
#10 N#CC1=C(N)N(c2ncn[nH]2)C2=C(C(=O)CCC2)C1c1ccc(F)cc1 (stereo unspecified)

Screen / compound no.	1	2	3	4	5	6	7	8	9	10
DT40 TDP1 CPT	?	-1%	15µM*	-7%	?	-8%	-1%	?	?	19%
KAT2A inh	3%	-7%	-19%	-3%	?	?	-2%	-13%	-1%	-1%

#11 CCOC(=O)c1cccnc1NC(=O)c1ccncc1
#12 COc1ccc(Nc2nc(N)c([N+](=O)[O-])c(NCCO)n2)cc1
#13 CCOc1cc(-c2cc(-c3ccc(NC(C)=O)cc3)nc(N)c2C#N)ccc1O
#14 Cc1ccc(CNC(=O)C(=O)Nc2c3c(nn2-c2ccccc2)CSC3)cc1
#15 COC(=O)c1c(NC(=O)CN2CCN(C(=O)c3ccco3)CC2)c2cc(C)ccc2n1C
#16 COc1cc2c(cc1NC(=O)CC1SC(N3CCCC3)=NC1=O)oc1ccccc12 (stereo unspecified)
#17 Cn1c(SCc2ccccc2F)nnc1-c1cnccn1
#18 COc1ccccc1-c1c(C)nn2c(N3CCOCC3)cc(C)nc12

Screen / compound no.	11	12	13	14	15	16	17	18
DT40 TDP1 CPT	-3%	-2%	18µM*	?	-26%	?	-29%	-1%
KAT2A inh	1%	0%	0%	2%	1%	-2%	-1%	-12%

Going on with the list.
No. | SMILES | DT40 TDP1 CPT | KAT2A inh
26 | CCN(C(=O)COC(=O)CNC(=O)c1ccc2ccccc2c1)c1c(N)n(Cc2ccccc2)c(=O)[nH]c1=O | -22% | .
27 | CC(=O)Nc1ccc(C(=O)N2CCc3cc4c(cc3C2C)OCCCO4)cc1 (stereo unspecified) | ? | -7%
28 | CCCN(c1ccc(C(=O)OC)cc1)S(=O)(=O)c1ccccc1 | -11% | -9%
29 | Cc1nn(CC(O)Cn2cnc3c2c(=O)n(C)c(=O)n3C)c(C)c1Br (stereo unspecified) | -14% | -1%
30 | CN(Cc1ccccc1)C(=O)COC(=O)CN1C(=O)c2ccccc2C1=O | -12% | -6%
31 | COc1ccc(CCN2CC(C(=O)NCCN3CCCC3=O)CCC2=O)cc1 (stereo unspecified) | -12% | -3%
32 | CCC(C)NC(=O)CCc1c(C)nc2nc(-c3cc(OC)cc(OC)c3)nn2c1C (stereo unspecified) | -27%&-13% | -3%&-2%
33 | Brc1cccc(-c2nnco2)c1 | -10% | -9%
34 | CCOc1ccc(C(=O)CCC(=O)NNC(=O)c2ccncc2)cc1 | 10% | -5%
35 | CCc1ccc(N2C(=O)CC(NNc3nc4ccccc4s3)C2=O)cc1 (stereo unspecified) | -6% | 25%
36 | CCOC(=O)CN(C(=O)CSc1nnc2c(n1)[nH]c1ccccc12)c1ccccc1 | ? | -2%
37 | O=c1nc2n(c3ccc([N+](=O)[O-])cc13)CCCCC2 | 5% | -6%
38 | COc1cc(C(=O)NNC(=O)c2ccco2)cc(OC)c1OC | 2% | 0%
39 | CCOc1ccc(NC(=O)CCN2CCN(S(=O)(=O)c3ccc(Cl)cc3)CC2)cc1 | -25% | 0%[0.501 µM]
40 | O=C(CNc1ccc2ccccc2c1)N/N=C/c1cc2ccccc2nc1Cl | ? | -3%
41 | Cc1nc2sc(C(c3ccccc3)N3CCN(c4ccccc4F)CC3)c(O)n2n1 (stereo unspecified) | ? | -9%
42 | O=C(COC(=O)/C=C/c1ccccc1)NC1CCCCC1 | -3% | -2%
43 | Cc1cccc(CC(=O)N2CCOCC2)c1 | -2% | -1%
44 | O=C(Nc1cccs1)Nc1ccccc1Br | ? | -3%
45 | O=C(Cc1cccs1)N1CCC(c2nc3c(nnn3Cc3ccccc3)c(=O)[nH]2)CC1 | ? | -2%
46 | Cc1ccc(S(=O)(=O)N2CCN(C(=O)CCc3c[nH]c4ccccc34)CC2)c(C)c1 | ? | -10%
47 | CCOc1ccc2nc(NC(=O)c3ccc(OCC4CCCO4)cc3)sc2c1 (stereo unspecified) | 4.1µM* | -15%
48 | O=C(NCCc1c[nH]c2ccccc12)C1CCN(c2nnc(N3CCCC3=O)s2)CC1 | -29% | -5%
49 | Cn1c(Oc2cccc(Cl)c2)nc2c1c(=O)n(Cc1ccccc1Cl)c(=O)n2C | -20% | -4%
50 | O=C(CCCC(=O)c1ccccc1)NCCc1ccccc1F | 5% | 19%

New compounds follow
No. | SMILES | DT40 TDP1 CPT | KAT2A inh
51 | Cc1ccc(F)cc1NC(=O)c1ccc2c(c1)OCO2 | -18% | -1%
52 | CC(=O)Nc1ccc(OCC(O)CN2CCN(c3ccccc3Cl)CC2)cc1 (stereo unspecified) | -11% | 4%
53 | C=CCSc1nnc(NC(=O)C2CC(=O)N(c3ccc4c(c3)OCCO4)C2)s1 (stereo unspecified) | -17% | -1%
54 | O=C1CCCN1CCCNS(=O)(=O)c1cccc(F)c1 | 4% | -3%
55 | CCOC(=O)c1c(N)sc(C(O)(C(F)(F)F)C(F)(F)F)c1-c1ccc(F)cc1 | ? | -13%
56 | CCn1c(CSCc2ccc(F)cc2)nnc1SCC(=O)NCc1ccccc1 | ? | -1%
57 | CCOc1ccc(CCNC(=O)CCc2c(C)nc3cc(-c4ccccc4OC)nn3c2C)cc1 | ? | -12%
58 | CCN(CC)C(=O)c1ccccc1NS(=O)(=O)c1cccs1 | 1% | -4%
59 | Cc1cncn1CCc1nc2c3ccccc3nc(SCC(=O)Nc3ccccc3F)n2n1 | ? | 0%
60 | CC1(C)C(=O)Nc2ccccc2N1C(=O)COC(=O)CNS(=O)(=O)c1ccc(F)c(F)c1F | -16% | -1%
61 | O=C(N/N=C/c1ccccc1F)c1csc2c1CCCC2 | ? | -11%
62 | O=C(NCc1ccccn1)c1cc2cc(Br)ccc2oc1=O | -5% | -7%
63 | COc1ccc(C(OC(=O)c2cccs2)C(=O)NCC2CCCO2)cc1 (stereo unspecified) | 3.7µM* | -4%
64 | COc1cc(Br)c(CCNC(=O)Cc2ccccc2)cc1OC | -30% | 0%
65 | CC(=O)c1ccc(-c2ccc(C(=O)N3CCC(C(N)=O)CC3)o2)cc1 | -5% | 2%
66 | CCN(CC)CC(C)(C)NS(=O)(=O)c1ccc(Cl)cc1 | -1% | 0%
67 | O=C1c2ccccc2C(=O)N1CCC#Cc1ccc2cc(CCCO)oc(=O)c2c1 | -3% | 1%
68 | COCCNS(=O)(=O)c1cc(OC)ccc1OC | 5% | -9%
69 | N#Cc1nc(-c2ccco2)oc1N1CCc2ccccc2C1 | -23% | ?
70 | Cc1ccc(S(=O)(=O)c2nc(S(C)(=O)=O)sc2N2CCC(O)CC2)cc1 | -30% | -2%
71 | COc1cc2c(=O)n(CCC(=O)NCC3CCCO3)c(=O)n(CC(=O)Nc3ccc(C)cc3C)c2cc1OC (stereo unspecified) | -15%&-21% | 1%&-7%
72 | Cc1csc(SCC(=O)Nc2cc(S(=O)(=O)N3CCOCC3)ccc2N2CCOCC2)n1 | -18% | -20%
73 | COCCCNC(=O)Cn1nnc(-c2ccc(NC(=O)c3ccccc3F)cc2)n1 | -14% | -12%
74 | Cc1ccc(C(=O)N[C@H](C(=O)Nc2cc(Cl)cc(Cl)c2)C(C)C)cc1 | 18% | 50%[activator]
75 | Cc1ccccc1NC(=O)/C(=C\c1cccs1)NC(=O)c1ccco1 | 1% | -9%

Remaining list, next part:
No. | SMILES | DT40 TDP1 CPT | KAT2A inh
76 | O=C(COC(=O)/C=C/c1cnc2ccccc2n1)NCC(F)(F)F | 3% | -3%
77 | Cc1nc(-c2ccc(S(=O)(=O)Nc3ccc(Br)cc3F)cc2)co1 | -12% | -6%
78 | O=C(/C=C/c1ccc(Cl)cc1Cl)NCc1ccco1 | -14% | -3%
79 | O=C(NCc1ccccc1)c1cccnc1Sc1ccccc1 | -11% | 18%
80 | CCOc1ccc(C2C(C(=O)c3ccco3)=C(O)C(=O)N2CCN2CCOCC2)cc1OCC (stereo unspecified) | -4% | -8%
81 | CSc1ccccc1NC(=O)CN1C(=O)C2CC=CCC2C1=O (stereo unspecified) | 10% | -12%
82 | COC(=O)N1[C@H](C)C=C[C@]1(Cc1ccccc1)C(=O)O | 5% | -3%
83 | COCCn1c(=NC(=O)CSC(C)=O)sc2cc(F)ccc21 | 21µM* | 0%
84 | C[C@]12c3[nH]c4cc(-c5ccco5)ccc4c3CCN1C(=O)[C@@H](CC(=O)NCCC1=CCCCC1)C[C@@H]2C(=O)N1CCOCC1 | 16µM* | -8%
85 | CC(=O)NC12CC3CC(C1)CC(C(=O)NCC(=O)Nc1c(C)cc(C)cc1C)(C3)C2 | -47% | -3%
86 | Nn1c(SCc2cc([N+](=O)[O-])cc3c2OCOC3)nnc1-c1ccccn1 | 4% | -4%
87 | CC(O)Cc1cn([C@@H](CCCCNC(=O)OC(C)(C)C)C(=O)N2CCN(C(=O)OC(C)(C)C)CC2)nn1 (stereo partly specified) | -15% | -1%
88 | Cc1ncc([N+](=O)[O-])n1CC(=O)Nc1ccc(F)cc1F | 1% | 0%

Part of the list above in a different format.
43. Cc1cccc(CC(=O)N2CCOCC2)c1
  DT40 TDP1 CPT: -2%; KAT2A inh: -1%

44. O=C(Nc1cccs1)Nc1ccccc1Br
  DT40 TDP1 CPT: ?; KAT2A inh: -3%
